# VACV mCherry inh – vaccinia inhibition (mCherry reporter); Potency, µM (series often up to 36.5 µM), without a hit: at the highest dose activity change, negative = inhibition, most hits filed as inhibitors; actives 0.63% (n = 310,000); AID 720579; Vaccinia virus mCherry reporter infection, fluorescence; about a quarter of the inactives have no number; active = well fitted inhibition curve with a large enough effect; inconclusive = small, poorly fitted or top-dose-only effect; inactive = no such curve, though single readings can be large or run the other way; tested in A549 cells; also: nearly all actives have a fitted effect of over 35% in size; inactives centre near -10
# VACV Venus inh – vaccinia inhibition (Venus reporter); Vaccinia virus Venus reporter expression, fluorescence; Potency, µM (titrated, usually from 36.5 µM), for the others: at the highest dose activity change, negative = inhibition, most hits filed as inhibitors; actives 0.46% (n = 330,000); active means well fitted inhibition curve with a large enough effect; inconclusive means small, poorly fitted or top-dose-only effect; inactive means no such curve, though single readings can be large or run the other way; tested in A549 cells; also: nearly all actives have a fitted effect of over 30% in size; inactives centre near -10
# * = called active by the depositor; i = inactive; ? = inconclusive; · = no result given; & = joins results of further samples; [ ] = dose if it differs, or a comment. % is scaled to controls: 0 for no effect and ±100 for the full control effect; potency is read from the fitted curve at half-maximal effect.
SMILES,VACV mCherry inh,VACV Venus inh
Cc1ccc(-n2nnnc2CNC(=O)c2cc(C(F)(F)F)cc(C(F)(F)F)c2)cc1C,-12%,-16%
Cc1ccc(OCCC(=O)OC(C)C(=O)Nc2c(C)n(C)n(-c3ccccc3)c2=O)cc1 (stereo not drawn),-6%,-20%
N#Cc1ccc(Oc2cccc(C(=O)O)c2)cc1C#N,-16%,-11%
Cc1ccc(NCc2ccc(Cl)nc2)c(NCc2ccc(Cl)nc2)c1,-18%,-6%
O=C(NCc1nnc(SCC(=O)N2CCc3ccccc32)o1)c1cccs1,i,3%
N/C(=N\OC(=O)c1ccccc1)c1ccccn1,i,-5%
CCS(=O)(=O)Nc1ccc2c(c1)OCO2,-2%,-12%
O=C(OCc1nc2ccccc2[n+]([O-])c1C(=O)c1ccccc1)c1cccnc1,-17%,-12%
Cc1ccc(OCc2cc(C(=O)N3CCN(CC(=O)NC(C)C)CC3)no2)cn1,i[7.34 µM],-8%[7.34 µM]
COc1ccc2nc3n(c(=O)c2c1)-c1ccc(Cl)cc1C(=O)NC3Cc1ccc(O)cc1 (stereo not drawn),i,-10%
Cc1cccc(C(=O)N/N=C/c2cc(Br)c(Br)o2)c1,-1%,-27%
COc1ccc(F)cc1CN1CCN(C(=O)CCC(=O)Nc2nnc(C(C)C)s2)CC1,-33%[1.46 µM],-18%

# Gathered by group: the entries above with an aryl methoxy group
SMILES,VACV mCherry inh,VACV Venus inh
COc1ccc2nc3n(c(=O)c2c1)-c1ccc(Cl)cc1C(=O)NC3Cc1ccc(O)cc1 (stereo not drawn),i,-10%
COc1ccc(F)cc1CN1CCN(C(=O)CCC(=O)Nc2nnc(C(C)C)s2)CC1,-33%[1.46 µM],-18%

# Next section:
SMILES,VACV mCherry inh,VACV Venus inh
Cc1nc2ccc(C(=O)OC(C)C(=O)c3c(C)[nH]c4ccccc34)cc2nc1C (stereo not drawn),-18%,13%
Cc1ccc(S(=O)(=O)c2[nH]c(-c3ccccc3)nc2SCCC(=O)O)cc1,1%,4%
COc1ccc(-n2ccc(=O)c(C(=O)O)n2)cc1,i,-14%
Cc1onc(C(=O)Nc2sc3c(c2C#N)CCCC3)c1[N+](=O)[O-],-2%,-20%
CCCCCOc1ccc(C(=O)CCC(=O)NC(C)c2ccc(S(N)(=O)=O)cc2)cc1 (stereo not drawn),-38%,-23%
Cc1cc(C)c2c(=O)c3c(oc2c1)C(=O)N(Cc1ccc(F)cc1)C3c1cccc(O)c1 (stereo not drawn),-28%,?
C=CCNC(=S)NNC(=O)c1cccnc1,i,-3%
COc1ccccc1OCC(=O)N1CCCC(Nc2ccc(F)c(F)c2)C1 (stereo not drawn),-14%,-10%
COC(=O)c1ccc(NC(=O)C2C3CCC(C3)C2C(=O)O)cc1 (stereo not drawn),·,-11%
O=C(CSc1nc2ccccc2c2c1CCCC2)N1CCOCC1,?,-4%
O=C(N/N=C/c1cccc([N+](=O)[O-])c1)C1COc2ccccc2O1 (stereo not drawn),0%,-14%
Cc1nn(-c2ccccc2)c2sc(-c3nnc(SCC(=O)O)o3)cc12,-13%,-11%
COc1ccc(NC(=O)CCC2CCCC2)cc1OC,-11%,-2%
O=C(Nc1cccc2nsnc12)c1ccc(-c2cccc(Cl)c2)o1,·,2%
C/C(=C\C(=O)c1ccccc1)Nc1ccc(O)cc1,-11%,6%
O=C(NCc1ccco1)c1ccccc1NS(=O)(=O)c1ccc2c(c1)OCCO2,·,1%
CCCCNC(=O)COC(=O)CNC(=O)c1cc(Cl)cc([N+](=O)[O-])c1,3%,4%
CNc1cnc(-c2cc(OC)c(OC)c(OC)c2)cn1,-28%,-24%
CCc1nc2ccc(C(=O)NCCNC(C)=O)cn2c1N(C)CCCc1ccccc1,1%,-2%
Cc1ccccc1N1CC(O)(c2cccs2)[N+]2=C1CCCC2 (stereo not drawn),-2%,1%
Cc1ccc(CCNC(=O)c2c(C)oc3ncn(CC(C)C)c(=O)c23)cc1,-17%,-10%
O=C(Nc1c(F)cc(F)cc1Br)c1cc(S(=O)(=O)N2CCN(c3ccccn3)CC2)ccc1F,-13%,?
CCCOc1ccc(N2C(=O)CC(NCCCN3CCC(C(N)=O)CC3)C2=O)cc1 (stereo not drawn),i,-1%
CC1Cc2ccccc2N1C(=O)CSc1ncc(-c2ccc(F)cc2)n1C (stereo not drawn),-16%,-15%
Cc1ccc(S(=O)(=O)NC(CC(=O)OCc2ccccc2)C(=O)OCc2ccccc2)cc1 (stereo not drawn),-25%,-6%
CCC(=O)N1Cc2cc(C(=O)NCCOC)nc(-c3cccc(-c4ccc(C#N)cc4)c3)c2[C@H]1CCO,-6%,3%
O=C(Nc1ccccc1Oc1cccnc1)C1CCCN(C/C=C/c2ccccc2)C1 (stereo not drawn),0%,-21%
Cc1cc(C)nc(NS(=O)(=O)c2ccc(NC(=O)c3cccs3)cc2)n1,·,3%
COC(C/C=C/[C@@H](O)[C@H](C)OCc1ccccc1)OC,-5%,5%
O=C1[C@H]2[C@@H](c3ccccc3)N[C@]3(CCCN(CC4CCCCC4)C3=O)[C@H]2C(=O)N1Cc1ccccc1,-5%,-30%
Cc1cccc(CSc2ncnc3nc[nH]c23)c1,-17%,-3%
Nc1ncnn1Cc1ccccc1,-6%,-6%
O=C(CCN1C(=O)[C@@H]2Cc3ccccc3CN2C1=O)NCc1ccc(Cl)cc1,i,-14%
CCCN(CCC)Cc1cc(=O)oc2cc(C)c(Cl)cc12,3%,-3%
Cc1ccc(N(C)C(=O)Oc2cccc3cccnc23)cc1,i,-16%
O=C(NCc1cccc(Cl)c1)c1cccc(OC2CCN(C(=O)C3CC3)CC2)c1,?,-24%
COc1ccc(NC(=O)C2CCN(C(=O)Nc3ccccc3)CC2)cc1S(=O)(=O)N(C)C,2%,-1%
CCn1nnnc1NCc1c(OC)ccc2ccccc12,-10%,17%
Cc1csc(NC(=O)CN(C)S(=O)(=O)c2cccc3cccnc23)n1,0%,-3%
CCc1ccc([C@@H]2CC=C(C(=O)O)[C@H](c3ccccc3F)N2S(=O)(=O)c2ccc(C)cc2)cc1,-2%,-14%
Cc1nn(-c2ccccc2)c2c1C1(C(=O)N(C)c3ccccc31)N(c1ccccc1)C(=O)N2 (stereo not drawn),-6%,-5%
CC(=O)c1cccc(NC(=O)C(C)N2CCc3ccccc3C2)c1 (stereo not drawn),?,-12%
Cc1cc(C)cc(C(=O)OCC(=O)NCc2ccco2)c1,-18%,-17%
NC1=NC(=O)/C(=C/c2c(OS(=O)(=O)c3ccc(Cl)cc3)ccc3ccccc23)S1,2%,-7%
COc1ccc(-c2nn(-c3ccccc3C)cc2CNC(C)c2cn(C)nc2C)cc1F (stereo not drawn),i,-14%
CC(=O)N1CCc2cc(S(=O)(=O)NC(CC(C)C)C(=O)Nc3cc(C(=O)O)ccc3C)ccc21 (stereo not drawn),-10%,-1%
OC(COc1ccccc1)Cn1cc(Br)cn1 (stereo not drawn),i,-18%
CC(C)c1ccc(NC(=O)C2C3C=CC(CC3)C2C(=O)O)cc1 (stereo not drawn),-20%,-4%
COc1cccc(-n2c(SCC(=O)N3CCc4ccccc43)nnc2-c2c[nH]c3ccccc23)c1,-24%,?
CC(C)OC(=O)CCCN1C(=O)c2ccc(N)cc2C1=O,i,-15%
COc1cccc(CNC(=O)CSCC(=O)Nc2ccc(C)cc2)c1,i,-8%
Cc1nc(SCCCSc2n[nH]c(C)n2)n[nH]1,·,-4%
COc1cccc(NC(=O)C(NCC(C)(C)CN(C)C)c2ccccc2)c1 (stereo not drawn),3%,11%
CCCCCCCCCC[n+]1cccc(Br)c1,-21%,?
O=C(Nc1ccc(F)cc1)C(c1ccccc1)N1CCN(c2cccc(C(F)(F)F)n2)CC1 (stereo not drawn),-3%,-24%
CCc1ccc(CNC(=O)c2c(C)oc3ncnc(N4CCOCC4)c23)cc1,-11%,-16%
CCN1C(=O)N(CC)C2NC(=S)NC21 (stereo not drawn),·,-3%
Cc1cc(C(=O)C(C)OC(=O)c2cnccn2)c(C)n1-c1ccccc1 (stereo not drawn),i,-12%
O=C(NCC1Cc2cccc(-c3ccccn3)c2O1)c1cnn2cccnc12 (stereo not drawn),-21%,-15%
CCC1(CCC(C)C)C(=O)NC(=S)NC1=O,i,-17%
# (listing goes on)
SMILES,VACV mCherry inh,VACV Venus inh
CSCCC(NC(=O)/C(=C\c1ccc(Cl)cc1)NC(=O)c1ccccc1)C(=O)O (stereo not drawn),-14%,-3%
O=C(c1ccc(S(=O)(=O)N2CCOCC2)cc1)N(c1ccccc1)C1C=CS(=O)(=O)C1 (stereo not drawn),-11%,-15%
CC(=O)N(Cc1ccc(F)cc1)Cc1nc2ccccc2c(=O)[nH]1,-7%,-5%
O=C(Nc1cccc(S(=O)(=O)N2CCCCC2)c1)C1CCC1,-11%,-10%
COc1ccc2nc3sc(C(=O)NCCc4ccc(Cl)cc4)cc3cc2c1,-7%,-5%
NC(=O)c1ccccc1NC(=O)CN1c2ccccc2S(=O)(=O)c2ccccc21,-2%,5%
CCCCn1nc2cc(C(=O)NCc3ccco3)ccc2c1OCC,i,-25%
CS(=O)(=O)N1N=C(c2cccs2)CC1c1ccccc1F (stereo not drawn),i,-4%
CCn1ccc(C(=O)NCCCN2CCCC2=O)n1,-13%,-13%
CC1(C)Cc2c(sc3c2c(=N)n(Cc2ccco2)c(=O)n3CC(=O)Nc2cccc(Cl)c2)CO1,·,-19%
C=CCN1CCC2(C)c3cc(O)ccc3CC1[C@@H]2C (stereo partly drawn),-20%,-10%
COc1cccc(-c2cnc3c(NC=O)cc(-c4ccc(S(C)(=O)=O)cc4)cn23)c1,-16%,?
CCOc1ccc(S(=O)(=O)NCCCN2CCCC2=O)cc1,-12%,-11%
COc1ccc(-c2ccc3c(c2)C2CC3CCN2C(=O)C2CCCCC2)cc1 (stereo not drawn),-2%,-2%
O=C(NC1CCC(C(=O)O)CC1)OCc1ccccc1 (stereo not drawn),i,-10%&25%&-20%
Cc1ccc(C)c(CNC(=O)CN2C(=O)CSc3ccc(S(=O)(=O)N(C)C)cc32)c1,-11%,0%
COc1ccc(CNC(=O)CCCc2ccccc2)cc1,i,-9%
COc1cccc(N/N=C(\C#N)S(=O)(=O)C(C)(C)C)c1,-26%,1%
CN1OC[C@@H]2CN(C(=O)CCc3ccccc3)[C@H](c3cccc(Oc4ccccc4)c3)C[C@@H]21,i,-16%
Cc1cccc(C)c1NC(=S)N1CCCN(Cc2ccc(F)cc2)C1,?,12%
CN(C(=O)Cn1nnc2ccccc2c1=O)C1CCCCC1,-3%,-18%
O=C(Nc1cccc(C(F)(F)F)c1)Nc1ccc2nc([C@@H]3O[C@H](CO)[C@@H](O)[C@H](O)[C@H]3O)[nH]c2c1,0%,1%
COCCn1c(SCC(=O)NC2CCCC2)nnc1-c1ccco1,-14%,3%
O=[N+]([O-])c1cccc(-n2nncc2-c2ccccc2)c1,-21%,-15%
COCCCNC(=O)Cn1cnc2c(NCc3ccccc3)ncnc21,i,-5%
Cc1n[nH]c(C)c1S(=O)(=O)N1CCCC(C(=O)NC2CCCc3ccccc32)C1 (stereo not drawn),1%,-14%
CCOc1c2ccc(C(=O)NCc3ccc4c(c3)OCO4)cc2nn1C,i,-9%

# Of the compounds above, 13 contain fluorine:
SMILES,VACV mCherry inh,VACV Venus inh
Cc1ccc(-n2nnnc2CNC(=O)c2cc(C(F)(F)F)cc(C(F)(F)F)c2)cc1C,-12%,-16%
COc1ccc(F)cc1CN1CCN(C(=O)CCC(=O)Nc2nnc(C(C)C)s2)CC1,-33%[1.46 µM],-18%
Cc1cc(C)c2c(=O)c3c(oc2c1)C(=O)N(Cc1ccc(F)cc1)C3c1cccc(O)c1 (stereo not drawn),-28%,?
COc1ccccc1OCC(=O)N1CCCC(Nc2ccc(F)c(F)c2)C1 (stereo not drawn),-14%,-10%
O=C(Nc1c(F)cc(F)cc1Br)c1cc(S(=O)(=O)N2CCN(c3ccccn3)CC2)ccc1F,-13%,?
CC1Cc2ccccc2N1C(=O)CSc1ncc(-c2ccc(F)cc2)n1C (stereo not drawn),-16%,-15%
CCc1ccc([C@@H]2CC=C(C(=O)O)[C@H](c3ccccc3F)N2S(=O)(=O)c2ccc(C)cc2)cc1,-2%,-14%
COc1ccc(-c2nn(-c3ccccc3C)cc2CNC(C)c2cn(C)nc2C)cc1F (stereo not drawn),i,-14%
O=C(Nc1ccc(F)cc1)C(c1ccccc1)N1CCN(c2cccc(C(F)(F)F)n2)CC1 (stereo not drawn),-3%,-24%
CC(=O)N(Cc1ccc(F)cc1)Cc1nc2ccccc2c(=O)[nH]1,-7%,-5%
CS(=O)(=O)N1N=C(c2cccs2)CC1c1ccccc1F (stereo not drawn),i,-4%
Cc1cccc(C)c1NC(=S)N1CCCN(Cc2ccc(F)cc2)C1,?,12%
O=C(Nc1cccc(C(F)(F)F)c1)Nc1ccc2nc([C@@H]3O[C@H](CO)[C@@H](O)[C@H](O)[C@H]3O)[nH]c2c1,0%,1%

# Screens deposited in PubChem BioAssay by National Center for Advancing Translational Sciences (NCATS).
